GALR2 ag = GALR2 receptor agonists, primary screen, cell-based; Galanin receptor type 2 (Homo sapiens), O43603; GALR2-expressing cells, agonist activation read-out; activation, %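 (tested at 5 µM)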; 0.48% of 140,000 active; AID 803, 2007;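 active = above mean plus 3 SD of all compounds, about 5% in these data, not always enough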;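 note: 0% = vehicle buffer wells and 100% = reference agonist at full effect; tested in CHO reporter cells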
Target sequence (O43603 whole entry, looked up): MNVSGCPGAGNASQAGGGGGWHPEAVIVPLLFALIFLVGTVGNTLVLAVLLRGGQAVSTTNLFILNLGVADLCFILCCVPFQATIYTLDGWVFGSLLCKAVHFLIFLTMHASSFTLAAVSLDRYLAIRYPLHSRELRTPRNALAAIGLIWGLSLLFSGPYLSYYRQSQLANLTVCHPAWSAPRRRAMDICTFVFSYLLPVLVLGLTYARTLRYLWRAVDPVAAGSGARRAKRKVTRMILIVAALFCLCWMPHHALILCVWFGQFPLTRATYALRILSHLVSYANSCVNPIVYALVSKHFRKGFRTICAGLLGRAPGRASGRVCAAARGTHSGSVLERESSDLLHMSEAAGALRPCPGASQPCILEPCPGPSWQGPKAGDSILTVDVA
RGS16-Gao = modulators of RGS16 binding to Galphao, primary screen, biochemical, human proteins, multiplexed bead flow cytometry; Regulator of G-protein signaling 16 (Homo sapiens) + Guanine nucleotide-binding protein …; bead-based flow cytometry RGS16-Galphao binding, fluorescence; actives lie on both sides; binding response (% of control), % at 10 µM; 0.38% of 220,000 active; AID 1441, 2008;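 active = below 25% or above 175%, edge rows of some plates excepted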;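 note: Galphao activated by GDP with aluminum fluoride before binding; 100% = wells without compound and 0% = beads without RGS; some results beyond the cut were filed as inactive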
Target sequence (O15492 whole entry, looked up): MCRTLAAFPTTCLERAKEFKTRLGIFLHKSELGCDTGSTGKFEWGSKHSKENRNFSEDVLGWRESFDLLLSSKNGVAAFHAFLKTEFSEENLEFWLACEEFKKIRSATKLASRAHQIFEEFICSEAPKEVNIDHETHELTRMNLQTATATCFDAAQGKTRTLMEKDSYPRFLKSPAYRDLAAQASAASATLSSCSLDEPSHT
Target sequence (P09471 whole entry, looked up): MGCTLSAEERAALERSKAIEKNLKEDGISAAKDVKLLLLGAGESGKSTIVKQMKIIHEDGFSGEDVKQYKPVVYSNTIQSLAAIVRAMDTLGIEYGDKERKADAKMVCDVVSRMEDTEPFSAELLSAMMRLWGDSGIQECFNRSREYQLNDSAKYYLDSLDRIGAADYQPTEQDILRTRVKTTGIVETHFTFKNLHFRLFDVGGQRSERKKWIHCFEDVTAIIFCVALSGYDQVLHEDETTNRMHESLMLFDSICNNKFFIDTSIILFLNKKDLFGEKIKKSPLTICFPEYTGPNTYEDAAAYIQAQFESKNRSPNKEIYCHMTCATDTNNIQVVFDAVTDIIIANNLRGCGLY
PKD1 kinase inh = inhibitors of human PKD1 kinase, biochemical, fluorescence polarization. AID 797, 2007. Serine/threonine-protein kinase D1 (Homo sapiens), Q15139. PKD1 kinase fluorescence polarization assay. 0.056% of 200,000 active. inhibition, %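 (about 10 µM by stock and volumes)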;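 active = inhibition of 50% or more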;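 note: controls were vehicle for no effect and a reference inhibitor for full effect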
HSV replic up = enhancers of HSV replication in host cells, fold increase, host cell viability; HSV replication augmentation in cells; 0.005% of 220,000 active; maximum fold increase;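 active = peak rise of 1.5-fold or more in the series; inconclusive = self-fluorescent or not available for retest; tested in PC3 cells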;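 note: first round at 10 µM; read as green reporter fluorescence; hits show the peak of a series up to 25 µM; 1 = signal of infected wells without compound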
INS promoter inh = inhibitors of insulin promoter-driven GFP, primary screen, imaging, TRM-6 cells (human fetal islet line), eGFP reporter, cell count; reporter expression induced with tamoxifen; inhibition, % at 2 µM; 0.9% of 130,000 active; AID 1273, 2008;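 active = inhibition above the mean plus 3 SD, with well images judged a real hit on visual review, cut at about 60% in these data, passing the limit was not always enough; inconclusive = inhibition over the cutoff but images rejected on review; inactive = inhibition not above the cutoff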
INS promoter inh cell count = further read-out of INS promoter inh, marked with its call; normalized cell count, %; measured here: cell count, toxicity; reference of the scale not given here;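 cells exposed to compound for 48 h; stained nuclei by imaging scaled within each plate; lower means fewer cells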
HSV replic up primary fold = second read-out of HSV replic up, no call of its own (marks repeat the call); fold increase; compound at 10 µM; measured here: primary screen fold increase 10 uM; tested in PC3 cells;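 GFP signal in the first replicate; 1 = infected wells without compound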
An asterisk follows results filed as active; i = inactive; ? = inconclusive; · = not tested or not shown.

SMILES	GALR2 ag	RGS16-Gao	PKD1 kinase inh	HSV replic up	HSV replic up primary fold	INS promoter inh	INS promoter inh cell count
CC1CCN(CCn2c(=S)[nH]c3cc4c(cc3c2=O)OCO4)CC1	·	100.0	-2.4	i	0.86	·	·
Cc1cc(F)ccc1NC(=O)c1cnccn1	·	98.4	0.0	i	0.99	·	·
O=C(COC(=O)c1cncc(Br)c1)NCC1CCCO1 (stereo unspecified)	-0.1	98.9	11.3	i	0.98	·	·
CS(=O)(=O)N1CCN(Cc2ccc(C(F)(F)F)cc2)CC1	-2.5	105.2	-2.9	i	0.97	-23.6	63.5
O=C1CC(C(=O)NCc2ccccc2)N=C(N2CCCCC2)N1 (stereo unspecified)	-2.2	101.3	-6.3	i	0.95	36.4	87.2
O=C(CCCN1C(=O)/C(=C/c2cccs2)SC1=S)NNC(=O)c1ccncc1	·	98.6	0.0	i	1.04	0.0	134.9
CC[C@@H]1CC=C[C@H]2[C@H]1C(=O)N(Cc1ccccc1)[C@H]2c1ccc2ccccc2c1	·	97.9	·	i	0.74	·	·
O=C(Cc1cccs1)NCc1ccc(F)cc1	-2.2	116.3	-1.9	i	0.93	-18.4	113.1
CCCCn1c(-c2ccco2)n[nH]c1=S	-1.4	101.8	-0.7	i	1.15	-20.5	129.6
NC1=NC(c2cn[nH]c2-c2ccc(F)cc2)n2c(nc3ccccc32)N1 (stereo unspecified)	·	97.9	-1.0	i	0.99	-109.1	60.3
CCOc1ccc(C(C)=O)cc1CSc1nnc(-c2cccs2)n1CC1CCCO1 (stereo unspecified)	-0.1	107.8	-0.4	i	0.993	-14.3	100.0
C=CCSc1nc(C)c(CC(=O)OCCCC)c(=O)[nH]1	-0.3	100.6	-0.8	i	1.04	11.5	94.1
CN(C)c1ccc(C(=O)OCc2ccccc2)cc1	0.6	94.2	-2.9	i	0.963	25.0	181.7
O=C(C1=COCCO1)N1CCN(S(=O)(=O)c2cccc(Cl)c2Cl)CC1	-0.5	95.6	7.3	i	0.87	-33.3	87.0
Cc1c(C)n(Cc2ccccc2)c2ncnc(N)c12	-1.1	109.8	-16.9	i	0.87	-38.5	213.2
CCc1nc(-c2ccc(C)nc2OC)no1	-0.2	106.1	1.9	i	0.993	-7.1	135.5
Cc1ccc(NC(=O)CSc2nnc(-c3cnccn3)n2-c2ccccc2)cc1	0.6	110.5	5.7	i	0.99	-13.9	124.8
CC(=O)Nc1ccc(SCC(=O)c2cc(C)n(-c3ccccc3)c2C)cc1	-0.5	107.1	-2.6	i	1.09	·	·
O=C(COC(=O)c1cc2ccccc2oc1=O)c1cccc([N+](=O)[O-])c1	0.1	105.5	-9.8	i	1.01	·	·
O=S(=O)(NC(=NCc1ccccc1)c1ccccc1F)c1ccccc1	·	101.5	-6.4	i	1.1	·	·
CCC(C)(C)NC(=O)C(c1ccccc1)N(Cc1cccs1)C(=O)Cn1nnc2ccccc21 (stereo unspecified)	-0.8	·	-6.2	i	0.98	4.8	68.0
COC(=O)CCC(=O)N1CCc2cc(S(=O)(=O)N3CCN(c4ccccc4Cl)CC3)ccc21	0.2	94.3	-5.8	i	0.9	-54.8	74.2
N#Cc1sc2nc(-c3cccs3)cc(-c3ccc(F)cc3)c2c1N	1.5	105.6	-2.6	i	0.96	·	·
Cc1cc(C(=O)N/N=C/C(Cl)=C/c2ccccc2)c(C)o1	·	102.2	·	i	0.84	·	·
CCn1c(SCC(=O)c2ccc(Br)cc2)nnc1C(C)NC(=O)Cc1ccc(OC)cc1 (stereo unspecified)	-1.2	101.8	-8.4	i	1.06	3.6	55.4
COc1cnc(-c2ccccn2)nc1Sc1ccc(C)cc1	·	43.3	-6.1	i	0.65	-15.0	86.5
CSCCC(NS(=O)(=O)c1ccc(Cl)cc1)C(=O)OCC(=O)c1ccc(F)cc1 (stereo unspecified)	-1.3	107.3	-8.8	i	1.17	30.2	77.7
COc1ccc(OC)c(C2c3c(oc4ccccc4c3=O)C(=O)N2CCCN(C)C)c1 (stereo unspecified)	-0.6	99.2	14.0	i	0.93	62.5	108.5
Cc1ccc(-c2nc(CS(=O)(=O)CC(=O)N3CCc4ccccc4C3)c(C)o2)cc1	-0.8	95.5	-3.4	i	0.93	·	·
CCOC(=O)COc1ccccc1/C=C1/NC(=O)NC1=O	0.0	107.2	-12.3	i	0.81	20.0	126.8
CCOC(=O)c1cnc2ccccc2c1NCCO	-3.3	114.1	-12.7	i	1.12	10.7	108.5
O=C(N/C(=C/c1cccnc1)C(=O)N1CCOCC1)c1ccccc1Cl	·	104.7	·	i	0.96	·	·
Nc1c(C(=O)NCc2ccco2)nnn1CC(=O)Nc1ccccc1	-3.4	101.6	-9.4	i	0.92	16.1	131.5
O=C(Nc1ccc(N2CCCC2)cc1)c1ccc2ccccc2c1	-2.0	108.5	-5.4	i	0.98	-28.9	71.4
O=C(NC1CCCC1)C(c1ccccc1)N(C(=O)c1ccco1)C1CCCC1 (stereo unspecified)	-2.6	99.5	1.1	i	0.93	20.0	112.9
CCOC(=O)C1CCCN(C(=O)COc2ccc(N(C)S(=O)(=O)c3ccc(C)cc3)cc2)C1 (stereo unspecified)	·	97.4	-1.8	i	0.74	-6.2	70.3
CCOC(=O)CN1C(=O)C(=O)c2cc(C)ccc21	-0.9	97.1	-1.4	i	0.97	-57.1	109.0
O=C(NC1CCN(C(=S)NCc2ccco2)CC1)c1ccc(F)cc1	-0.8	97.4	-9.8	i	0.75	-7.1	150.2
CC(=O)c1ccc(NC(=S)N2CCN(c3cccc(Cl)c3)CC2)cc1	·	101.2	-1.4	i	0.94	-5.9	28.4
O=C(NCc1ccc2c(c1)OCO2)C1CCC(CNS(=O)(=O)c2ccc(Cl)cc2)CC1 (stereo unspecified)	-0.8	114.4	-0.5	i	0.89	-29.2	104.2
Cc1ccc(C(=O)NNC2=NC(C)(C)Cc3ccccc32)cc1	·	84.2	·	i	1.04	·	·
c1ccc(N2CCN(Cc3cn4cccnc4n3)CC2)cc1	0.1	106.6	-8.9	i	0.9	·	·
CCOC(=O)c1ccc(NC(=O)COC(=O)c2cccc(Oc3ccccc3)c2)cc1	0.4	106.4	-11.3	i	0.96	26.7	133.3
CCOC(=O)c1ccc(NC(=O)CSC(=S)N2CCOCC2)cc1	·	102.7	-2.3	i	1.03	-62.5	102.1
O=C(O)Cn1c(SCCOc2ccccc2F)nc2ccccc21	-0.9	73.3	-5.7	i	0.93	68.0	102.5
CCOc1ccc(NS(=O)(=O)c2ccc3c(c2)CCN3C(=O)C2CCC2)cc1	-2.6	104.5	-3.4	i	0.69	19.2	117.7
COc1ccc(N=C2NC(=O)/C(=C\C=C\c3ccccc3)S2)cc1	·	27.6	-7.5	i	0.83	·	·
Cc1cccc(C(=O)NCC(c2ccco2)N(C)C)c1 (stereo unspecified)	·	90.7	-11.8	i	1.02	·	·
COc1ccc(S(=O)(=O)N2CCN(c3ccc4nnc(-c5ccc(F)cc5)n4n3)CC2)cc1	0.6	99.6	-8.0	i	0.87	·	·
O=C(Nc1ccc([N+](=O)[O-])cc1)C1C(c2ccccc2)=C1c1ccccc1	-1.2	101.2	-2.5	i	1.16	40.0	102.3
COc1ccc(N2CCN(Cc3nc(-c4ccccc4)no3)CC2)cc1	·	101.8	1.2	i	0.91	-55.6	88.5
O=c1c([N+](=O)[O-])cc(C(F)(F)F)cn1Cc1c(Cl)cccc1Cl	-3.3	94.6	-16.9	·	·	10.7	36.4
Clc1ccccc1CSc1nc2ccncc2[nH]1	0.2	95.7	-6.5	·	·	·	·
CCCCNC(=O)C1CCCN1C(=O)Nc1cccc(OC)c1 (stereo unspecified)	-1.4	125.3	-5.0	i	0.85	19.4	84.0
Cc1ccc(NC2=NCC(=O)N2CCc2ccccc2)cc1C	-0.1	108.6	-1.0	i	0.77	-30.8	228.9
O=C(NNC(=O)c1cnccc1C(F)(F)F)c1ccccc1	·	96.5	·	i	1.16	·	·
C/C(=N\Nc1ccc(S(N)(=O)=O)cc1[N+](=O)[O-])c1ccco1	·	100.5	·	i	0.81	·	·
CCOC(=O)c1cnn(-c2nc3c(C)cccc3s2)c1C	-3.8	101.4	-1.7	i	1.04	-15.5	72.1
CN(C)c1ccc2c(O)cc(=O)n(C)c2c1	-2.3	103.3	-0.8	i	1	·	·
CCOc1ncccc1C(=O)OCC(=O)NC(=O)NC(C)C	·	101.2	1.5	i	0.97	·	·

New compounds follow:
SMILES	GALR2 ag	RGS16-Gao	PKD1 kinase inh	HSV replic up	HSV replic up primary fold	INS promoter inh	INS promoter inh cell count
CC1CC(C)CN(C(=O)COC(=O)c2cccc([N+](=O)[O-])c2)C1 (stereo unspecified)	·	94.3	-3.2	i	0.92	57.1	94.0
O=C(N/N=C/c1ccccc1)c1ccc(N2CCOCC2)c([N+](=O)[O-])c1	-0.5	107.5	-14.7	i	0.84	-42.3	112.9
COCCNC(=O)c1cc2sccc2n1C	·	88.5	-5.0	i	1.01	·	·
COc1ccc(NC(=O)CN2CCN(c3ccccc3F)CC2)cc1	-0.1	106.5	-3.6	i	0.92	20.9	138.6
COc1ccc(CCNC(=O)NC(C(F)(F)F)C(F)(F)F)cc1OC	-2.0	118.4	-4.5	i	0.9	25.7	92.2
COC(=O)C1=C(C)Nc2nnnn2C1c1cc(OC)ccc1OC (stereo unspecified)	-0.3	73.8	-11.4	i	0.85	·	·
CC1CN(c2nc3c(c(=O)n(Cc4ccc(Cl)cc4)c(=O)n3C)n2C)CC(C)O1 (stereo unspecified)	-0.2	99.1	-7.5	i	0.77	·	·
C/C(=N\NC(=O)c1ccccc1)c1ccc(N2CCCCC2)cc1	-0.1	109.1	-13.8	i	0.7	·	·
COc1cc(NC(=O)c2n[nH]c(=O)c3ccccc23)cc(OC)c1	·	93.9	·	i	1.03	·	·
O=C(c1ccccc1)N1CCN(S(=O)(=O)N2CCOCC2)CC1	·	99.7	7.1	i	0.79	-46.7	122.3
Cc1cccc(C)c1NC(=O)CCCSc1nnc(N)s1	·	101.2	3.5	i	1.02	·	·
COc1ccc(Cn2cnc3c4cc(F)ccc4n(C)c3c2=O)cc1	·	108.0	·	i	0.97	·	·
Cc1cc(NC(=O)CCC(=O)N(CC(=O)NC2CCCC2)Cc2ccccc2Cl)no1	-2.2	102.5	6.3	i	0.98	·	·
CC(C)OP(=O)(OC(C)C)C(Nc1cccc(C(=O)O)c1)c1ccccc1 (stereo unspecified)	·	95.5	·	i	0.99	·	·
O=C(Nc1cccc(C(F)(F)F)c1)c1cc(S(=O)(=O)N2CCCCC2)ccc1N1CCOCC1	-1.0	55.1	-11.0	i	0.85	-53.1	96.3
CC(=O)N(C(C)=O)C1=C(C#N)C2(CCCCC2)Cc2ccccc21	-0.8	102.2	-4.1	i	1	-43.6	93.3
O=C(NC(=S)NCc1ccco1)c1ccccc1	·	100.0	-8.6	?	·	·	·
Cn1nc(CC(=O)N2CCN(c3ccccc3)CC2)c2ccccc2c1=O	0.0	104.5	5.5	i	1.08	16.7	101.8

Screening data deposited in PubChem BioAssay by several laboratories.
